Screening results as filed in PubChem BioAssay.
LANA-H2B inh: blocks KSHV LANA binding to histone H2A/H2B; 0.6% of 320,000 active; cell-free LANA-H2A/H2B peptide, fluorescence polarization; Q9QR71; inhibition, % (concentration not given with the values); in the data active = inhibition mostly above about 10%, no sharp cut-off; inactive = mostly below about 6.7%;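 also: stock transfer was 7.5 nL into about 10 µL; 0% = median of vehicle wells and 100% = median of positive control wells; one replicate is shown; the record names a cut of 25% in any replicate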
Calb FLC: affects C. albicans growth with fluconazole; C. albicans CaCi-2 (fluconazole-resistant clinical isolate) + fluconazole, Alamar Blue growth, 48 h; growth inhibition, % (concentration not given with the values); 0.57% of 300,000 active;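 active = most replicates above 75%; inconclusive = exactly half above 75%; inactive = most below 75%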;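 also: all wells also contain fluconazole at 8 µg/ml as a sub-toxic cotreatment; 0% = median of DMSO wells and 100% = median of geldanamycin control wells; wells of about 8 µL received 7.5 nL stock; the first replicate is given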
Vif A3G: HIV-1 Vif–A3G interaction blockers – biochemical, TR-FRET, GST-Vif 1-94, biotin-A3G peptide, dose response retest, primary screen (AID 1117319); TR-FRET GST-Vif / biotin-A3G peptide binding; higher % means a stronger effect; test concentration not given here; strong numbers were not always called active; one-dose inhibition, %; IC50 in µM for titrated hits; 0.57% of 260,000 active;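 active = above the screen mean plus three standard deviations and confirmed in dose response; inconclusive = results disagree or hit not tested in dose response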;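 also: Vif residues 1-94 fused to GST binding biotinylated APOBEC3G peptide 110-148; 0% = full assay without inhibitor and 100% = GST in place of GST-Vif; retest series ran down from 100 µM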
Beta2AR agonist: activates human beta-2 adrenergic receptor causing internalization | P07550 | Am2.2-beta2AR cells, FAP receptor internalization, flow cytometry; reference of the scale not given here | response, % (no concentration beside the values) | 0.43% of 340,000 active;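 active = response above a set limit, near 3 SD of response in nonfluorescent compounds, cut at about 42% in these data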;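 also: stock transfer was 100 nL into about 11 µL; a reference agonist was the positive control; negative values mostly stem from fluorescent compounds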
Target sequence (P07550 whole entry, looked up): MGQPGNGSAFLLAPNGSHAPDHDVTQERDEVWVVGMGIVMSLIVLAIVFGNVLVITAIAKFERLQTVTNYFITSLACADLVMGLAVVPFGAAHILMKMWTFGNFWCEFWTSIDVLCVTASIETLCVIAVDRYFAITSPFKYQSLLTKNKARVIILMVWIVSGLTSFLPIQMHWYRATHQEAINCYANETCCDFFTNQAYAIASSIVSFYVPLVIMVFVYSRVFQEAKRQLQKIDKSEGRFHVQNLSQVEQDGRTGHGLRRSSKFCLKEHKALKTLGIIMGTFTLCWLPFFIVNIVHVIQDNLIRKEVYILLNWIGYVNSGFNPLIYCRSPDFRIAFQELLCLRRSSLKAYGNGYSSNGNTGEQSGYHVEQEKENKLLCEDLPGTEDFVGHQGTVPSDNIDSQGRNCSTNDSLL
RanGTP-Imp inh: inhibitors of RanGTP-importin-beta interaction, primary screen, biochemical, FRET, CFP-Ran, YFP-importin-beta, homogeneous. 1.1% of 300,000 active. cell-free CFP-Ran/YFP-importin-beta FRET ratio. inhibition, % (concentration not given with the values);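 active = most replicates above 15%; inconclusive = exactly half above 15%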;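 also: 0% = DMSO wells and 100% = Ran loaded with GDP instead of GTP; wells of about 40 µL received 100 nL stock; the first replicate is given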
HNF4A DNA FP: change in binding of human HNF4 alpha to DNA | 0.3% of 360,000 active | activity change, % at 10 µM | HNF4a-FITC DNA binding, fluorescence polarization, 1 h; in the data active = activity change above about 30%, passing the limit was not always enough;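 also: controls were the assay level and a saturating level of protein; the project sought stronger binding though the title names inhibitors; some compounds called inactive have numbers as strong as hits; positive values seem to mean higher polarization but the record does not say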
Target sequence (P41235 whole entry, looked up): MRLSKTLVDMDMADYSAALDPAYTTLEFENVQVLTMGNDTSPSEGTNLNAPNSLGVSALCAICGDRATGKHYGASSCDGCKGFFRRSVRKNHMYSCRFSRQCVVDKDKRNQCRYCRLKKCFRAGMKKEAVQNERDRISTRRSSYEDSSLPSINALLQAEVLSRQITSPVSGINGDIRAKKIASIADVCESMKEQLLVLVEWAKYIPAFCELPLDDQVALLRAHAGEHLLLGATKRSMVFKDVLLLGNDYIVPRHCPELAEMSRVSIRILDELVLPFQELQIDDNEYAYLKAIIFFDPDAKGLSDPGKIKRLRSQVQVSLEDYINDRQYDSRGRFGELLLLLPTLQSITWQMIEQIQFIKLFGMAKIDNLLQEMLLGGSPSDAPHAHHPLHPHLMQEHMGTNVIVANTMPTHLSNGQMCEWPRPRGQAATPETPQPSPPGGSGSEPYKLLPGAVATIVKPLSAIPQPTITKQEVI
ALR inh: inhibitors of human sulfhydryl oxidase ALR; P55789; purified ALR, DTT oxidation, H2O2 HRP-luminol luminescence; inhibition, % (concentration not given with the values); 3.8% of 290,000 active;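 active = mean and each replicate at 75% or more; inconclusive = only one of the two met; inactive = neither met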;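 also: stock transfer was 7.5 nL into about 7.5 µL; 0% = neutral wells and 100% = wells with inactivated enzyme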
Target sequence (P55789 whole entry, looked up): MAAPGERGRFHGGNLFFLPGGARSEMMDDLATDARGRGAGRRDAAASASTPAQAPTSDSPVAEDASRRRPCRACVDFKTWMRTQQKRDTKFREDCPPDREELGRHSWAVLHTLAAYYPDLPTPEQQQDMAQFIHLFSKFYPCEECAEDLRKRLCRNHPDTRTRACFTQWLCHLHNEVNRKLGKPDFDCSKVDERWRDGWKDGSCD
Active calls of the source: *; ? = inconclusive; · = not tested or not shown.

SMILES	LANA-H2B inh	Calb FLC	Vif A3G	Beta2AR agonist	RanGTP-Imp inh	HNF4A DNA FP	ALR inh
CC(C)n1c2ccccc2c2cc([N+](=O)[O-])ccc21	8.6	0	-2%	-3	4.5	6.2	4
C=CCn1c(SCC(=O)Nc2cc(C)on2)nnc1C1COc2ccccc2O1 (centres undefined)	-5.9	17	6%	-8	-4.4	2.2	1
O=C(N/N=C/c1ccccn1)c1cccc(S(=O)(=O)N2CCCC2)c1	2.3	-7	·	5	-1.4	3.4	3
CC(=O)n1cc([C@H]2C=C(C(=O)N3CCN(Cc4ccc5c(c4)OCO5)CC3)O[C@@H](OCCCCO)C2)c2ccccc21	-0.7	18	3%	0	-3.0	3.5	-5
CCCCOc1ccc(C(C)NC(=O)CCS(=O)(=O)Cc2ccc(Cl)cc2)cc1 (centres undefined)	3.2	2	-1%	-13	0.4	1.2	-2
CNC(=S)N(Cc1ccc(OC)cc1)C1CC(=O)N(c2ccc(OC)cc2)C1=O (centres undefined)	-2.4	-12	-2%	-5	·	-1.2	-14
COc1ccc(/C=C2\SC(=O)N(CC(=O)NC3CCS(=O)(=O)C3)C2=O)cc1 (centres undefined)	-3.6	-2	·	6	3.5	-1.3	-2
Cc1ccc(C(=O)NCC(=O)N(C)Cc2ccc(Cl)cc2Cl)s1	·	·	-1%	0	·	3.2	·
Cc1cc(C)nc(-n2cc(C(=O)c3cc(F)ccc3O)cn2)n1	-1.1	-1	4%	-1	2.9	5.3	6
CC1CC(C)CN(C(=O)CNS(=O)(=O)c2ccc(Br)s2)C1 (centres undefined)	2.6	-8	0%	1	1.3	-0.3	·

An excerpt of these results, as labelled records:
CCCCOc1ccc(C(C)NC(=O)CCS(=O)(=O)Cc2ccc(Cl)cc2)cc1 (centres undefined)
  LANA-H2B inh = 3.2
  Calb FLC = 2
  Vif A3G = -1%
  Beta2AR agonist = -13
  RanGTP-Imp inh = 0.4
  HNF4A DNA FP = 1.2
  ALR inh = -2
CC(=O)n1cc([C@H]2C=C(C(=O)N3CCN(Cc4ccc5c(c4)OCO5)CC3)O[C@@H](OCCCCO)C2)c2ccccc21
  LANA-H2B inh = -0.7
  Calb FLC = 18
  Vif A3G = 3%
  Beta2AR agonist = 0
  RanGTP-Imp inh = -3.0
  HNF4A DNA FP = 3.5
  ALR inh = -5

The list goes on.
SMILES	LANA-H2B inh	Calb FLC	Vif A3G	Beta2AR agonist	RanGTP-Imp inh	HNF4A DNA FP	ALR inh
Cn1cc(S(=O)(=O)c2ccccc2)c(=O)c2cc(F)c(N3CCOCC3)cc21	1.3	-13	·	11	0.4	-0.4	-2
COc1cccc(CNC(=O)CCC2CCCN(C(=O)c3cc(C4CC4)[nH]n3)C2)c1 (centres undefined)	-1.8	-17	·	-19	3.4	-3.8	-8
CS(=O)(=O)N(CC(=O)NCCSCc1ccccc1Cl)c1ccc(F)cc1	2.7	12	·	0	-1.8	3.6	·
COc1cccc(NC(=O)COC(=O)C2CC3CCCC(C2)C3=O)c1 (centres undefined)	-2.2	·	-9%	-1	·	0.1	-2
O=C(NCCNc1ccc([N+](=O)[O-])cc1)c1ccccc1Br	5.6	-1	11%	46*	0.0	2.1	-7
COc1ccccc1S(=O)(=O)Cc1ccc(C(=O)N2CCN(c3ccccc3)CC2)o1	-1.7	36	-1%	2	?	0.7	46
Cc1ccc2cc(CCNC(=O)c3ccc(S(=O)(=O)N4CCOCC4)cc3)c(=O)[nH]c2c1C	0.8	3	-5%	5	1.3	2.5	-7
CCOc1ccccc1N1CCN(C(=O)c2ccc(-c3ccc(OC(C)=O)cc3)cc2)CC1	0.2	3	-6%	11	1.1	0.9	·
COc1ccccc1C1C(C#N)=C(N)N(N(C)C)C2=C1C(=O)CC(C)(C)C2 (centres undefined)	-4.7	5	-6%	-4	-1.2	4.6	-32
CS(=O)(=O)N1CCN(C(=O)Cc2ccc(Br)cc2)CC1	-6.3	7	·	-10	-0.7	-1.5	10
CS(=O)(=O)N(CC(=O)N1CCc2ccccc2C1)c1ccccc1F	1.4	-7	·	-7	2.2	2.2	-2
COc1ccc(C2(C)NC(=O)N(CC(=O)NCc3ccccc3F)C2=O)cc1 (centres undefined)	-3.5	7	·	7	4.7	-1.5	-11
COc1ccc(C2C(C(=O)c3sc(C)nc3C)=C(O)C(=O)N2CCCn2ccnc2)cc1 (centres undefined)	-3.2	-2	·	-19	0.0	0.8	·
Cc1ccc(S(=O)(=O)c2cc3ccc(O)cc3oc2=O)cc1C	1.3	-8	-5%	5	132*	-5.5	·
CC(CCc1ccccc1)NCC(O)COc1ccccc1 (centres undefined)	1.7	-26	-9%	-14	-0.2	-0.8	0
Cc1nnc2sc(-c3ccc(NC(=O)c4ccc(-c5ccc(Cl)cc5Cl)o4)cc3)nn12	-4.0	7	·	15	?	103*	-1
Cc1cccc(NC(=O)c2cccc(S(=O)(=O)N3CCCC3)c2)n1	0.4	-1	13%	-1	1.9	-0.2	-2
C/C(CC1(O)C(=O)Nc2ccccc21)=N\O (centres undefined)	4.0	5	1%	3	-2.4	-0.6	-7
O=C(NCCc1ccccc1)c1ccc(NC(=O)C2CCCC2)cc1	·	·	3%	5	·	1.9	·
Cc1cc(C)c(NC(=O)CSCc2nc3sc(C)c(C)c3c(=O)[nH]2)c(Cl)c1	55*	·	·	-31	·	43*	·
CCOc1ccc(NC(=S)NC(=O)c2cccnc2)c([N+](=O)[O-])c1	-4.5	39	·	-4	0.2	1.6	-3
COc1c(C(=O)Nc2c(C)n(C)n(-c3ccccc3)c2=O)ccc2ccccc12	0.0	10	3%	-3	0.4	2.3	0
Cc1ccc(OCC(=O)N[C@@H](C)c2nnc3ccccn23)cc1C	-1.0	0	-3%	-6	?	-4.2	3
COc1ccc(C(=O)NCCc2cn3ccccc3n2)cc1	0.2	3	-1%	-14	-2.3	-3.1	2
NC1=NC(=O)/C(=C\c2cccnc2)S1	-2.9	-2	-21%	-3	-1.3	-0.7	-13
COc1cccc(NC(=O)CN(C)C(=O)Cc2n[nH]c(=O)c3ccccc23)c1	3.7	·	-5%	8	·	-4.8	·
COc1ccc(S(=O)(=O)N(C)c2ccc(C(=O)Nc3c(C)n(C)n(-c4ccccc4)c3=O)cc2)cc1	0.0	-4	·	-10	3.7	-1.1	-4
CC(=O)OC(/C(O)=C(\C#N)c1nc2ccccc2[nH]1)c1ccccc1 (centres undefined)	-2.0	-18	5%	8	12	4.1	9
Cn1c(-c2ccc(Cl)cc2)cnc1N	-0.3	3	?	1	·	0.1	30
O=C(CCn1c(=O)sc2ccccc21)NCc1ccccc1	7.6	-1	?	-7	-0.4	6.9	·
CC(=O)Nc1ccc(NC(=O)C(C)Sc2nc3ccccc3c(=O)n2CC2CCCO2)cc1 (centres undefined)	-3.3	-8	-1%	-13	0.3	2.7	-16
C=CCn1c(SCC(=O)c2cccs2)nc2sc(CC)cc2c1=O	-2.0	3	-14%	16	1.8	-2.2	-5
O=C(c1cnc(Cl)c(Cl)c1)N1CCN(S(=O)(=O)c2ccc3ccccc3c2)CC1	·	·	-3%	18	·	-5.2	·
CCn1cc(CNC(=O)/C=C/c2ccc([N+](=O)[O-])cc2)c(C)n1	4.9	?	5%	-4	-0.2	0.0	-3
O=C(NCc1cccs1)C(=O)NCC1OCCCN1S(=O)(=O)c1cccs1 (centres undefined)	3.0	4	-3%	0	-1.9	3.9	·
CC(NC(=O)C1CC1)C(c1cccs1)N1CCOCC1 (centres undefined)	1.8	8	1%	-1	-0.3	-2.5	-2
Cc1ccc(C(=O)N/C(=C\c2ccco2)C(=O)NCCCN2CCOCC2)cc1C	-0.3	3	·	7	2.1	1.3	-2
Cc1cccc(C)c1NC(=O)c1ccc(N2CCCC2=O)cc1	-0.5	·	-10%	8	·	-1.2	-3
O=C(Nc1ccc(Cl)cc1F)C1CCN(S(=O)(=O)c2cccc3nonc23)CC1	1.5	0	·	4	4.5	-0.8	1
CCc1ccc(C(=O)/C=C2\Sc3ccccc3NC2=O)cc1	-6.5	?	9%	0	-0.7	-0.5	13
Nc1nc(SCC(=O)N2CCN(S(=O)(=O)c3ccc(Cl)cc3)CC2)n[nH]1	-5.7	17	14%	-2	2.4	-0.3	-2
Cc1c(-c2ncn[nH]2)sc(C#N)c1-c1ccccc1	-2.8	48	-14%	-1	1.5	2.4	·
CC(NC(=O)c1cccc(C(F)(F)F)c1)C(c1ccccc1)N1CCOCC1 (centres undefined)	2.8	-7	13%	-1	0.3	2.0	-5
O=c1ccccn1Cc1ccccc1F	1.7	1	-1%	20	6.9	0.6	-14
COc1cccc(CNc2ccc(S(=O)(=O)N3CCN(C)CC3)cn2)c1	·	·	2%	1	·	0.3	-1
O=C(Nc1cccc(NC(=O)c2ccc([N+](=O)[O-])o2)c1)c1ccco1	7.6	-6	·	11	?	-1.0	·
CC(=O)Nc1ccc(NC(=O)CSc2ccccn2)cc1	-3.0	-6	-2%	2	-0.6	-2.5	-7
Cc1noc(C)c1C(=O)OC(C)C(=O)N1CCc2ccccc21 (centres undefined)	-3.7	·	·	-1	·	-1.9	-8
C(=Cc1c[nH]c2ccccc12)c1nccc2ccccc12	·	·	-1%	-151	·	31	·
Cc1ccc(S(=O)(=O)NCCC(=O)NNC(=O)COc2ccc(Br)cc2)cc1C	-1.0	·	-11%	2	·	2.5	-3

(more compounds)
SMILES	LANA-H2B inh	Calb FLC	Vif A3G	Beta2AR agonist	RanGTP-Imp inh	HNF4A DNA FP	ALR inh
Cc1sc2ccccc2[n+]1CC(=O)c1ccccc1	0.0	-2	·	7	1.6	-1.2	·
CCc1ccc(C(=O)NNc2ccc(S(N)(=O)=O)cc2)cc1	2.4	8	10%	10	14	3.3	-8
CC(C)(COC(=O)c1ccccc1)N1CC2CCC(C1)O2	·	·	0%	-3	·	1.1	·
CCOC(=O)Cc1cn(C(=O)OC(C)(C)C)c2ccccc12	1.8	·	·	4	·	3.4	-3
O=C(/C=C/Nc1ccc(F)cc1)c1ccc(Br)cc1	-2.0	-1	·	-5	0.7	5.8	·
COc1ccccc1NC(=O)Cc1nnc(SCC(=O)Nc2nccs2)n1C	-3.1	-1	·	-5	-1.9	-1.1	·
CCOC(=O)C1CCN(C(=O)/C=C/c2ccccc2)CC1	-3.9	-13	1%	8	-0.7	-7.2	-5
Cc1occc1-c1nnc(SCC(=O)c2cc3ccccc3oc2=O)o1	7.4	·	-5%	-4	6.1	-0.5	98*
COc1cc(NC(=O)c2ccc(COc3ccccc3Br)o2)cc(OC)c1OC	0.0	-2	12%	0	2.2	0.2	-15
O=C(c1cccc(Br)c1)c1cn(-c2ccccc2)nc1C(=O)c1ccccc1	-2.5	4	-3%	-15	-1.0	-4.5	-4
CNn1cnc2ccsc2c1=O	-4.2	0	7%	-2	-3.7	2.9	-23
CN(Cc1ccccc1)c1ncnc2sccc12	-3.8	6	-3%	-3	2.7	1.9	-21
O=C(Cn1cnc2ccccc2c1=O)NCCC(=O)Nc1ccc2c(c1)OCO2	8.0	-10	6%	-5	?	-0.4	-7
COc1cc(C(=S)N2CCOCC2)cc(OC)c1OC(=O)c1ccccc1[N+](=O)[O-]	5.1	2	·	0	-1.3	0.1	-28
C/C(=N/NC(=O)C1COc2ccccc2O1)c1ccco1 (centres undefined)	2.8	-5	·	7	2.3	1.9	·
O=C(COC(=O)CSc1cc(Cl)ccc1Cl)Nc1ncc(C(F)(F)F)cc1Cl	0.7	13	18%	6	-1.8	2.5	4
COC(=O)c1nnn(CC(=O)Nc2cccc(Cl)c2)c1C(=O)OC	-5.3	-3	-3%	23	1.9	-3.3	-14
CCOC(=O)c1nn(-c2cccc(Cl)c2)c(C)c1C(C)=O	0.9	-13	24%	3	0.7	3.4	2
CC1(C)Cc2cccc(OCC(=O)OCC(=O)Nc3cccc(S(N)(=O)=O)c3)c2O1	3.5	-3	23%	3	6.6	2.3	-6
